# Compound activity deposited in PubChem BioAssay by National Center for Advancing Translational Sciences (NCATS).
# SmPrx2 inh = Schistosoma Mansoni Peroxiredoxins (Prx2). AID 448, 2006. Potency, µM. Schistosoma mansoni peroxiredoxin 2 (Prx2). S. mansoni Prx2 activity coupled to TGR/GSH (TGR is thioredoxin glutathione reductase), NADPH fluorescence loss, qHTS; some inactives read as strong as hits. hit rate 0.07% among 65,000; active means full or partial inhibition curve with a strong effect at the top dose; inconclusive means weaker partial or single-point curve; inactive means no accepted curve; further: series up to 57 µM; many of its hits are not listed in these tables
#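 qHTS, coupled TGR/Prx2 format; 15 min compound preincubation at RT; reaction started with H2O2 (2.5 mM aliquot); kinetic NADPH fluorescence decrease, ex 365/em 450 nm.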
# LT uptake inh = qHTS Assay for Anthrax Lethal Toxin Internalization; hit rate 0.67% among 70,000; Potency, µM (top dose mostly 40 µM), without a hit: top-dose activity change, negative = inhibition, most hits filed as inhibitors; Cells, anthrax lethal toxin internalization, FRET ratio (460/530); active = well fitted falling ratio curve with the 530 nm signal flat; inconclusive = other ratio curves, or a change in one channel alone; inactive = flat curves in the ratio and both channels; the % refers to the ratio; further: on the % scale 0 is the no-effect control and ±100 the full control effect; nearly all actives have a fitted effect of over 50% in size; tested in ME-180 cells; beta-lactamase reporter
# An asterisk follows results filed as active; ? = inconclusive; nt = no result given; & = joins results of further samples; [ ] = dose if it differs, or a comment. Potency means the concentration at half of the fitted maximal effect. A portion of the library; the hit share may differ from the screen's.
SMILES,SmPrx2 inh,LT uptake inh
Cc1ccccc1C(=O)OCn1nnc2ccccc2c1=O,>57,13.0%
Cc1cc(Nc2cc(F)ccc2C)n2nc(C)nc2n1,>57,6.2%
CCN(CC)CCNc1nc2ccccc2n1C,>57,5.7%
O=C(C1=C(O)C(=O)N(CCN2CCOCC2)C1c1ccncc1)c1ccco1 (stereo not given),nt,-4.4%
COC(=O)c1ccc(OC(=O)c2ccccn2)cc1,>57,7.0%
COCc1ccc2oc(C(=O)O)cc2c1,>57,4.7%
O=C(COc1ncnc2sccc12)N1CCN(S(=O)(=O)c2ccc(Cl)cc2)CC1,>57,5.9%
CC(=O)Nc1sc(C)c(C)c1C(=O)OC1CCOC1=O (stereo not given),>57,-1.5%
COCCN1C=C(C(=O)OC)C(c2ccc3c(c2)OCO3)C(C(=O)OC)=C1,nt,?
Cc1coc2c(C)c3oc(=O)c4c(c3cc12)CCCC4,>57,0.4%
O=c1c2ccccc2nnn1CSc1nnc(-c2ccco2)o1,>57,18.6%
O[C@@H](C1=C/C(=C\c2ccncc2)c2ccccc21)c1ccncc1,>57,-8.6%[8 µM]
CC(C)(C)C(O)C(Oc1ccc(Cl)cc1)n1cncn1 (stereo not given),>57,-20.6%
CS(=O)(=O)N1CCC[C@@]2(CCN(Cc3ccccc3)C2)C1,>57,-9.2%
CC(C)n1nc(C(=O)OCC(=O)N(C)C2CCS(=O)(=O)C2)c2ccccc2c1=O (stereo not given),>57,6.8%
CCn1nnnc1SCC(=O)Nc1nc(-c2cccs2)cs1,>57,-15.8%
Cn1nnc(-c2ccc(OCc3ccccc3F)cc2)n1,>57,-19.8%
Cc1cc(NC(=O)NC2(C(F)(F)F)Oc3ccc(Cl)cc3O2)no1 (stereo not given),>57,22.0%
N#Cc1cccc(Cn2nnc(-c3ccccc3)n2)c1,>57,-1.0%
Cc1onc(-c2c(Cl)cccc2Cl)c1C(=O)Nn1cnnc1,>57,?
COc1ccc(CN2CCN(C(=O)c3ccco3)CC2)cc1,>57,4.7%
CCCC(=NCC(=O)O)C1=C(O)C(C(=O)OC)C(C)(C)CC1=O (stereo not given),>57,-1.3%
CN=C(C)C1=C(O)C(C(=O)OC)C(C)(C)CC1=O (stereo not given),nt,-6.3%
CCOC(=O)N1CCN(C(=O)CN2C(=O)COc3ccc(C)cc32)CC1,>57,-4.3%
Cc1cc(C(=O)CSc2nc3ccccc3o2)c(C)n1C1CC1,>57,-33.9%
COc1ccc(C/C(O)=C(\C#N)c2nc3ccccc3[nH]2)cc1OC,>57,13.0%
Cn1c(CN2CCOCC2)nc2cc(NC(=O)c3ccccc3Cl)ccc21,>57,6.6%
O=S(=O)(c1ccccc1)N1CCC[C@@]2(CCN(Cc3nccs3)C2)C1,>57,?
CCOc1cc2[nH]c(=S)n(Cc3ccc(C)o3)c(=O)c2cc1OCC,>57,6.7%
CCCCC(CC)CO (stereo not given),nt,-2.2%
CNC(=O)NC(=O)CSc1ncc(C(F)(F)F)cc1Cl,>57,15.6%
CCn1nnnc1SCC(=O)NCc1ccco1,>57,-1.7%
CCCCC(c1nnnn1CC1CCCO1)N1CCN(c2cc(Cl)ccc2C)CC1 (stereo not given),>57,-4.6%
Cc1nnc(N2C(=O)C(O)=C(C(=O)c3ccco3)C2c2ccc(F)cc2)s1 (stereo not given),>57,-5.0%
CCCOc1ccc(CSc2ncn[nH]2)cc1,>57,?
CS(=O)(=O)N1CCC(C(=O)c2cccc(Cl)c2)CC1,>57,-6.4%
COc1cc2c(cc1OC)C1=C(C#N)CCC(=O)N1CC2,>57,12.5%
CCn1c(=O)c2cc(S(=O)(=O)NCc3ccccc3)ccc2n(CC)c1=O,>57,-9.5%
COc1ccc2[nH]cc(CCNC(=O)C3CCCNC3=O)c2c1 (stereo not given),>57,-2.4%
CCOC(=O)c1cccc(NC(=O)CCNS(=O)(=O)c2ccc3c(c2)CCN3C(=O)CC)c1,>57,4.9%
O=S(=O)(NCc1ccc(F)cc1)c1ccc2c(c1)OCCO2,>57,4.7%
CCn1c(SCC(=O)N2CCN(c3ccccc3)CC2)nc2c(c1=O)SC(C)C2 (stereo not given),>57,24.2%
CSC1=Nc2sc3c(c2C2=NCCN12)CCCC3,>57,-24.1%
CCCn1nnnc1SCC(=O)N(C(C)C)C(C)C,>57,4.2%
O=C1c2ccccc2C(=O)N1Cc1nc2ccccc2c(=O)n1CCCn1ccnc1,nt,2.8%
CC(=O)NC(Cc1ccc(C(C)C)cc1)C(=O)NC1CCN(c2nc(C)cc(C)n2)CC1 (stereo not given),>57,-17.9%
COc1ccc(OC)c(NC(=O)CCN2CCN(c3ccccc3F)CC2)c1,nt,-18.1%
COc1ccc(CCNC(=O)CCSc2nc(-c3ccco3)cc(C(F)(F)F)n2)cc1,>57,5.8%
Cc1ccc(S(=O)(=O)C2(C(=O)Nc3ccc(F)cc3)CC2)cc1,>57,-7.4%
COC(=O)Cc1cc(=O)[nH]c(/N=C(\N)Nc2ccc(C)cc2C)n1,nt,-5.6%
Cc1c(C)c2c(C)nn(-c3ccccc3)c2[nH]c1=O,>57,?
Cc1ccc(C(c2nnnn2C(C)(C)C)N2CCN(C3CCCC3)CC2)cc1 (stereo not given),>57,-0.4%
C=CCn1cnc2c(NCc3ccccc3)ncnc21,>57,-0.4%
CCOc1ccc(N2Cc3ccccc3C2)cc1,nt,?
Nc1ncc2c(n1)CC(c1ccco1)CC2=O (stereo not given),>57,-19.2%
Cc1nc2cc(-c3ccccc3)ccc2o1,>57,-5.5%
N=c1nc(-c2ccccc2)ccn1O,>57,8.1%
NCCc1c[nH]c2ccc(C(N)=O)cc12,>57&>57,-5.9%&1.7%
O=C(NCCN1CCOCC1)C1CC(=O)N(c2ccc(F)c(Cl)c2)C1 (stereo not given),>57,4.4%
O=C(Nc1ccc(-c2cn3ccsc3n2)cc1)C1CCCC1,>57,-9.5%

# Next section.
SMILES,SmPrx2 inh,LT uptake inh
Cc1cc(C)n(C(=O)CN2C(=O)COc3ccccc32)n1,>57,-10.3%
O=C(CSc1nnc(Cc2ccccc2)o1)NCc1ccco1,>57,?
CCCCCCC(=O)N(O)C1CC(=O)N(c2ccccc2)C1=O (stereo not given),>57,?
O=C(CCS(=O)(=O)c1cccc2nonc12)NCCc1ccccc1Cl,>57,7.7%
COC(=O)c1cccc(Oc2nc(N3CCOCC3)nc(N3CCOCC3)n2)c1,>57,nt
Cc1cnc(CNc2ccnc(-c3ccccc3Cl)n2)cn1,>57,7.8%
Cc1nnc(SCC(=O)N2c3ccccc3CC2C)s1 (stereo not given),>57,1.8%
O=c1cc(Nc2ccc3c(c2)OCCO3)[nH]c(=O)n1-c1ccc(Br)cc1,>57,?
Cc1ccccc1-c1cc(-n2ccnc2)ncn1,>57,5.3%
CN(C)CCCN1C(=O)c2oc3ccc(Cl)cc3c(=O)c2C1c1cccnc1 (stereo not given),>57,-1.1%
CCOC(=O)c1cc2c(c(CSc3nc4ccccc4c(=O)n3Cc3ccco3)c1)OCOC2,>57,-17.6%
CCc1ccc(S(=O)(=O)NCCc2csc(-c3ccccc3)n2)s1,>57,?
CN(C)/C=N/c1c(C#N)cnn1-c1ccc(C(F)(F)F)cn1,>57,-10.9%
CC(C)NC(=O)NC1C2CC3CC(C2)CC1C3 (stereo not given),>57,1.5%
CC(C)Oc1cccc(C(=O)Nc2ccc(N3CCN(S(C)(=O)=O)CC3)cc2)c1,>57,-10.3%
O=C(OC(C(=O)NCc1cccs1)c1ccc(F)cc1)c1ccco1 (stereo not given),>57,?
N#Cc1cc2sc3nc4ccccc4n3c2cc1C#N,>57,14.8%
Nc1nonc1NC(=O)CSc1ncccc1C(=O)O,>57,9.9%
Cn1c(=O)c2c(nc(CN3CCCCC3)n2CCCc2ccccc2)n(C)c1=O,>57,-8.4%
CN(Cc1ccccc1)C(=O)CSc1nnc(-c2ccco2)n1-c1ccccc1,>57,2.0%

# An excerpt of these results, with values under each structure.
# Screens in order – SmPrx2 inh	LT uptake inh
CC(C)Oc1cccc(C(=O)Nc2ccc(N3CCN(S(C)(=O)=O)CC3)cc2)c1
  >57	-10.3%
O=C(OC(C(=O)NCc1cccs1)c1ccc(F)cc1)c1ccco1 (stereo not given)
  >57	?
N#Cc1cc2sc3nc4ccccc4n3c2cc1C#N
  >57	14.8%
Nc1nonc1NC(=O)CSc1ncccc1C(=O)O
  >57	9.9%
Cn1c(=O)c2c(nc(CN3CCCCC3)n2CCCc2ccccc2)n(C)c1=O
  >57	-8.4%

# The list goes on.
SMILES,SmPrx2 inh,LT uptake inh
COc1ccccc1C(=O)Nc1cccc(-c2cn3ccsc3n2)c1,>57,-19.6%
COc1ccccc1C(=O)Nc1ccc2oc(-c3ccc(F)cc3)nc2c1,nt,?
COc1ccccc1OCc1nnc(SCCN2CCOCC2)o1,>57,-7.3%
O=C(CSc1nnc(COc2ccccc2Cl)o1)NC(=O)NC1CCCC1,>57,0.8%
COCCn1nnnc1C(c1cccs1)N1CCN(c2cc(C)ccc2C)CC1 (stereo not given),>57,?
CCOC(=O)N1CCN(C(=O)CS(=O)Cc2nc(-c3ccc(C)cc3)oc2C)CC1 (stereo not given),>57,-15.8%
CC(C)CN(CC(C)C)S(=O)(=O)N1CCC(C(=O)NC2CCCCCCC2)CC1,>57,-0.7%
O=S(=O)(c1ccc(Oc2ccc(-c3nnco3)cc2)nc1)N1CCC(Cc2ccccc2)CC1,>57,-6.0%
COC(=O)c1sccc1NC(=O)c1c(C)noc1C,>57,8.8%
O=C(NCC12CC3CC(CC(C3)C1)C2)c1nc2ncccn2n1,>57,11.1%
Cc1cc(N2CCOCC2)nc2ccc(NC(=O)C3CCC(C)CC3)cc12 (stereo not given),>57,-2.1%
O=S(=O)(Nc1cccc(-c2cn3ccsc3n2)c1)c1ccc(F)cc1,>57,17.9%
c1ccc2c(c1)Sc1ccccc1N2C[C@H]1CN2CCC1CC2,>57,-13.8%[8 µM]
Cc1nnc(SCC(=O)Nc2ccc3c(c2)OCCO3)s1,>57,2.5%
Cc1ccc2cc(CCNC(=O)c3ccco3)c(=O)[nH]c2c1,>57,-12.2%
C=Cn1c(N2CCOCC2)nc2c1c(=O)[nH]c(=O)n2C,>57,-16.3%
CCCN1CCN(c2nc3c([nH]2)c(=N)ncn3CC(O)CO)CC1 (stereo not given),>57,-12.6%
CN(C(=O)C1CCOC1)c1nnc(-c2ccccn2)s1 (stereo not given),>57,-2.2%
CCOC(=O)c1c(CN2CCCCC2)n(C)c2ccc(OC)c(S(=O)(=O)c3ccccc3)c12,>57,-2.6%
Cn1cccc1C(=O)N1CCC2(CCCN(c3ncccn3)C2)CC1,>57,2.3%
O=C(CCCc1ccc(-c2ccccc2F)cc1)Nc1ccc(O)cc1,nt,?
O=C(Nc1cnn(C23CC4CC(CC(C4)C2)C3)c1)c1cc(-c2ccccc2)on1,>57,6.9%
COCCNC(=O)C(c1ccc(F)cc1)N(CC1CCCO1)C(=O)CCC(=O)Nc1ccccn1 (stereo not given),>57,-4.7%
CCCCCC(=O)Nc1ccc2oc(-c3cncc(Br)c3)nc2c1,>57,-3.9%
C=CCn1c(COc2ccccc2)nnc1SCC(=O)C(C)(C)C,>57,?
O=C(c1ccc2c(c1)OCO2)N1CCCN(C(=O)c2ccc3c(c2)OCO3)CC1,>57,-1.0%
O=C(NCc1cccs1)C1CCCN1S(=O)(=O)c1ccccc1F (stereo not given),>57,11.8%
O=C1C[C@@H](O)[C@@H](O)[C@H]2[C@@H]3C(=O)N(C[C@@H]4CCCO4)C(=O)[C@@H]3CC[C@H]12,nt,4.2%&6.3%[8 µM]
O=C(O)C1NCCc2ccccc21 (stereo not given),>57,-6.5%
O=c1c(CCc2ccccc2)nc2cnc(N3CCNCC3)nc2n1C1CC1,>57,?
CCOC(=O)Cc1nn2c(=O)cc(C)nc2s1,>57,?
Nc1nc(-c2c[nH]c3ccccc23)cs1,>57,?
C[C@@H]1O[C@H]2C3=C(C(=O)[C@H]4O[C@@H]4[C@H]3O)[C@@H]1[C@@H]1[C@@H](C)OC=C3[C@H](O)[C@H]4O[C@@H]4/C(=N\OCc4ccccc4)[C@]312,nt,?
COc1cccc(/C=N/n2cnnc2)c1OCc1ccccc1,>57,14.0%
CCC1(CC)C(=O)NC(=NCCc2c[nH]c3ccccc23)NC1=O,>57,?
CNc1nnc(-c2cccc(N(C)C)c2)s1,>57,?
COc1ccc2[nH]cc(CCNc3ccnc(-c4ccccc4Cl)n3)c2c1,>57,?
O=C(CCN1CCOCC1)Nc1ccc2c(c1)N(C(=O)CN1CCOCC1)c1ccccc1CC2,>57,-3.1%
COc1cc(NC(=O)c2ccco2)c(OC)cc1NC(=O)CSc1ncc(-c2ccc(F)cc2)[nH]1,>57,1.9%
O=C(O)C1CCCCC1C(=O)NCc1ccc(F)cc1 (stereo not given),>57,15.7%

# Four of these compounds in another layout.
O=C(NCc1cccs1)C1CCCN1S(=O)(=O)c1ccccc1F (stereo not given)
- SmPrx2 inh: >57
- LT uptake inh: 11.8%

O=C(Nc1cnn(C23CC4CC(CC(C4)C2)C3)c1)c1cc(-c2ccccc2)on1
- SmPrx2 inh: >57
- LT uptake inh: 6.9%

O=C(CCN1CCOCC1)Nc1ccc2c(c1)N(C(=O)CN1CCOCC1)c1ccccc1CC2
- SmPrx2 inh: >57
- LT uptake inh: -3.1%

COc1ccc2[nH]cc(CCNc3ccnc(-c4ccccc4Cl)n3)c2c1
- SmPrx2 inh: >57
- LT uptake inh: ?
